PABP polyA inh: PABP-poly(A) binding inhibition; PABP-poly(A) RNA binding, fluorescence polarization; inhibition, % at 35 µM; 1% of 290,000 active; AID 2014;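 active = 50% or more with normal probe brightness, or confirmed in later tests; inconclusive = above 50% with abnormal brightness, or retests that disagree; inactive = below 50% or failed in later tests; about a fifth of its hits are not listed in these tables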;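 also: calls also rest on retests at 20 µM and on dose response follow-up; controls were probe without protein and protein plus probe with vehicle; some compounds called inactive have numbers as strong as hits; many hits fall short of the cut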
Target sequence (P11940 whole entry, looked up): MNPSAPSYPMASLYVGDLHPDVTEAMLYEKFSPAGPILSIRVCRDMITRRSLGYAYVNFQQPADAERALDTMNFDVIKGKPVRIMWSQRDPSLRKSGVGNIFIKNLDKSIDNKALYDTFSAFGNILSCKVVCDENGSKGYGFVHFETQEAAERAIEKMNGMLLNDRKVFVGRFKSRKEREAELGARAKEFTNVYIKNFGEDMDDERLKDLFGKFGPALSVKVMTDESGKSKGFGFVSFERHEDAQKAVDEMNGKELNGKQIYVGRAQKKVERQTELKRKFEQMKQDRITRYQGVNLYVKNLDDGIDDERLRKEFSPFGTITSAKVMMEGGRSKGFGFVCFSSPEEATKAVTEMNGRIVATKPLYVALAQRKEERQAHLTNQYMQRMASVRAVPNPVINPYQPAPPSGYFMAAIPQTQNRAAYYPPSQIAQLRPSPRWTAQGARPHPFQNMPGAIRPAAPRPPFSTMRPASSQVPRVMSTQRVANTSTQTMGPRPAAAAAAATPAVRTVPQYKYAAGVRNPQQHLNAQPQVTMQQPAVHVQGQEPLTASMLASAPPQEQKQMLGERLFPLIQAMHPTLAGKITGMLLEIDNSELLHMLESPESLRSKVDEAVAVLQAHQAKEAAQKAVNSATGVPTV
Rce1 inhib: blocks yeast Ras-converting enzyme; Q03530; yeast membranes, quenched prenylated peptide cleavage fluorescence; calls only; 0.27% of 290,000 active; AID 2563;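 active = fall in fluorescence gain of 50% or more versus controls, with final raw signal at or below 3038400; inconclusive = same 50% fall but final raw signal above 3038400; inactive = fall in fluorescence gain under 50%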;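 also: plate controls were neutral control wells for no effect and wells lacking membranes for full effect; tested at 10 µM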
Target sequence (Q03530 whole entry, looked up): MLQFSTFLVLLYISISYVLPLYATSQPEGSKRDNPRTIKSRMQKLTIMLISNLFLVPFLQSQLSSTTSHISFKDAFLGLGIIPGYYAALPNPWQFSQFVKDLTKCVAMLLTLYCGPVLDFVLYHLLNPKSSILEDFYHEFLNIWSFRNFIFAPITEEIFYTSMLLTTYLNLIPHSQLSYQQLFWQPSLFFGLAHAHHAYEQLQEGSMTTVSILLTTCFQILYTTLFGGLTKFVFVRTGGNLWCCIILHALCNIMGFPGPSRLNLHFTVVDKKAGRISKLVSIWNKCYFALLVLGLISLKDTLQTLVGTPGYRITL
UUG fidelity: modulators of start codon recognition fidelity in yeast. S. cerevisiae UUG-firefly luciferase reporter, luminescence/redox ratio. activity score, % at 18.7 µM. 0.13% of 350,000 active. AID 602363;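 active = replicate mean at a twofold rise or more, about +100% in these data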;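 also: firefly luciferase made from a UUG start codon reports start codon fidelity; reporter light over untreated wells divided by growth signal over untreated wells; some hits fall short of that in this replicate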
HIV Env fusion: blocks HIV Env-driven cell-cell fusion. HeLa-JRFL Env/CEM21 cell fusion, luciferase. inhibition, % at 12.3 µM. 1.1% of 360,000 active;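 active = mean replicate inhibition score of at least 50 and every replicate individually at or above 50; inconclusive = only one of the two criteria met; inactive = mean below 50 and not all replicates reaching 50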;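 also: 0% = plate neutral controls and 100% = maraviroc near 300 nM; one replicate is shown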
eIF4H inh: inhibitors of RNA binding by human eIF4H; eIF4H fluorescence polarization binding assay; inhibition, % at 35 µM; 0.94% of 290,000 active;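 active = 50% or more with normal probe brightness, or confirmed in later tests; inconclusive = above 50% with abnormal brightness, or retests that disagree; inactive = below 50% or failed in later tests; about a fifth of its hits are not listed in these tables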;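 also: calls also rest on retests at 20 µM and on dose response follow-up; 0% = protein and probe with vehicle and 100% = probe without protein; strong numbers were not always called active; many hits fall short of the cut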
MT1-MMP act inh: inhibitors of human MT1-MMP activation; P50281; HT1080 RFP-PRO-GFP cells, GFP/RFP ratio fluorescence, overnight; percent of plate control window, DMSO zero; GFP/RFP ratio change, % at 20 µM; 0.061% of 360,000 active; AID 651647;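 active = GFP/RFP ratio change of at least 30% with cell ATP level not reduced by more than half and red fluorescence within 50% of control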; also: strong numbers were not always called active
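Assay system: HT1080 RFP-PRO-GFP cells. Benchmarks: DMSO vehicle wells and RFP-L50D-GFP reporter cell wells. Times: overnight cell settling, then overnight compound exposure, 37 °C, 5% CO2. Compound: 20 µM single dose, 1% DMSO. Read-out basis: GFP/RFP fluorescence ratio.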
CSC inhib: cancer stem cell inhibition; AID 2717; cancer stem cell-like cells viability, luminescence; inhibition, % at 7.5 µM; 1.1% of 300,000 active;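 active = mean at 75% or more and at least half the replicates too; inconclusive = mean and replicates disagree; tested in HMLE shEcad cells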;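 also: 0% = median of negative and 100% = median of positive control wells; the first replicate is given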
eIF4H inh retest: also measured in eIF4H inh; calls as there; inhibition, %; compound at 20 µM; confirmation average;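 mean of two retest wells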
PABP polyA inh retest: further read-out of PABP polyA inh, marked with its call; inhibition, %; compound at 20 µM; confirmation repeats;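 mean of two retest wells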
MT1-MMP act inh RFP: also measured in MT1-MMP act inh; calls as there; RFP signal change, %; measured here: RFP expression control read;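 0 = vehicle wells; hits needed this value within 50% of zero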
* hit, by the source's call; i = inactive; ? = inconclusive; . = not tested or not shown; & = joins results of further samples. The list is partial, so the mix of outcomes need not match the whole.

SMILES	PABP polyA inh	Rce1 inhib	UUG fidelity	HIV Env fusion	eIF4H inh	MT1-MMP act inh	MT1-MMP act inh RFP	CSC inhib	others
NC(=O)c1nsc(C(=O)N(Cc2ccco2)C(C(=O)NCC2CCCO2)c2ccc(O)cc2)c1N (stereo not given)	-4	i	.	-2	5	-2	0	1
COc1cc2nc(Cl)nc(N3CCCCC3)c2cc1OC	3	.	.	-3	-5	-2	-10	-13
O=C1OCC(c2ccccc2)=C1c1ccc(S(=O)(=O)N2CCOCC2)s1	3	i	3	.	-9	8	4	15
COc1ccc(C(=O)N[C@H]2CCCCNC2=O)cc1OC1CCN(C(C)C)CC1	9	i	-4	3	-1	2	6	-4
Cc1ccccc1OCC(=O)N/N=C1\CC(=O)CC(C)(C)C1	-1	.	-20	-21	-7	1	3	-8
Cc1ccc(S(=O)(=O)Nc2ccncc2)c(C)c1N(C)S(=O)(=O)c1ccc(F)cc1	36	i	.	-1	-3	3	5	-7
N#Cc1nc(-c2ccco2)oc1NCCCN1CCOCC1	-7	i	.	.	-12	4	5	-16
CCc1cc(=O)oc2c(C)c(O)c(CN(C)C)cc12	18	?	-5	-34	18	-1	-3	-2
CCC(C)c1ccc(NC(=O)C/C(C)=N/NC(=O)c2cnccn2)cc1 (stereo not given)	-3	i	.	-14	-4	0	0	2
Cn1nccc1C(=O)Nc1cccc(C(F)(F)F)c1	7	i	-25	-1	-4	.	.	9
O=C(NNC1=NCCN1Cc1ccccc1)c1cccc(C(F)(F)F)c1	2	i	.	-4	-3	3	3	-9
CC1CC(C)CN(C(=O)c2nn(C)c3c2CSc2ccccc2-3)C1 (stereo not given)	0	i	1	i	-5	-3	-2	-3
O=C(CSc1nnc(-c2ccccn2)o1)Nc1ccc(F)cc1	-2	i	-13	-18	-5	5	8	9
CC1CCN(c2ccc3nnc(CCC(=O)NC(C)C)n3n2)CC1	-2	i	-19	-8	-7	-2	2	3
O=C(N[C@@H](Cc1ccccc1)C(=O)NC1CCCCCC1)c1ccco1	2	i	-12	-4	7	4	-1	1
CCCCn1c(N)c(N(CCC(C)C)C(=O)COC(=O)c2cccnc2OCC)c(=O)[nH]c1=O	.	.	0	3	.	-6	-2	.
COc1cc(/C=N/S(=O)(=O)CCc2ccccc2)ccc1O	15	i	-10	-41	1	4	7	-1
CCN(CC)S(=O)(=O)c1ccc(C(=O)N2CCc3ccccc32)cc1	3	i	.	5	4	-2	-5	49
Cc1nc(CNC(=O)CC2C(=O)NCCN2Cc2cccc(Oc3ccccc3)c2)cs1 (stereo not given)	0	i	.	-15	0	-2	3	-1
CC1(C)CC(=O)C2=C(C1)OC(N)=C(C#N)C2c1cccc(OC(=O)c2ccco2)c1 (stereo not given)	8	i	-10	.	-2	-1	-1	5
CCOC(=O)/C(=C\c1ccc([N+](=O)[O-])o1)NC(=O)c1ccccc1	?	i	-6	.	?	-18	-1	0
COc1ccc(C(=O)N(C)Cc2ccccn2)cc1OC1CCN(C(C)C)CC1	-17	.	-8	2	-9	-3	3	-7
Clc1cccc(CSc2ncn(-c3ccccc3)n2)c1	-3	.	-10	-62	-4	-1	-4	3
O=C(NCC1CC1)Nc1ccccc1F	-2	i	-8	-20	-1	3	5	-13
CN(C)c1ccc(/C=N/N(Cc2ccccc2)c2ccccc2)cc1	-4	i	-7	14	-2	-2	5	8

More compounds
SMILES	PABP polyA inh	Rce1 inhib	UUG fidelity	HIV Env fusion	eIF4H inh	MT1-MMP act inh	MT1-MMP act inh RFP	CSC inhib	others
CCOc1ccc(C=NNC(=O)c2ccc(-n3cnnn3)cc2)cc1	.	.	-36	.	.	3	3	-6
CCOC(=O)c1cc(C(=O)OCC)c(=O)[nH]c1N1CCCC1	2	i	.	-3	4	0	2	-44
O=C(O)COc1ccc(/C=N/NC(=O)c2cn(-c3ccccc3)nc2-c2ccccc2)cc1	4	i	-13	-8	70	-1	0	27	eIF4H inh retest=6;PABP polyA inh retest=3
Cc1ccc(C)c(OCC(=O)Nc2ccc(S(=O)(=O)Nc3ccccn3)cc2)c1C	2	i	-19	2	-4	0	1	-1
CC(=O)Nc1ccc(NC(=O)CSc2ncnc3c2cnn3Cc2ccccc2)cc1	-12	i	-22	0	-11	3	0	-5
CCCOc1ccc(C(O)C(CN2CCOCC2)c2ccccc2)cc1 (stereo not given)	3	i	2	.	-5	-2	5	-2
O=C(N/C(=C\c1cccc([N+](=O)[O-])c1)C(=O)N1CCOCC1)c1cccc(Br)c1	8	i	11	4	1	-4	-2	-1
Cc1noc(C)c1-c1ccc(C(=O)NCc2ccccc2)c2occc12	.	.	9	7	.	13	6	.
N#Cc1ccc(NC(=O)CNc2cc(S(=O)(=O)N3CCOCC3)ccc2NCC2CCCO2)cc1 (stereo not given)	10	i	3	5	7	5	1	-15
O=C(CSc1nnc(CNC(=O)c2ccco2)o1)Nc1cccc(F)c1	-15	i	-8	5	-11	0	3	-7
C=CCN1C(=O)C(Cc2ccc(C)cc2)S/C1=N/N=C/c1ccco1 (stereo not given)	21	i	.	.	-9	3	-5	1
O=C(c1ccccc1Br)N1CCN(c2ccc([N+](=O)[O-])c(N3CCOCC3)c2)CC1	-6	i	.	17	-10	2	1	8
O=C(Nc1cccc(F)c1)c1cc(S(=O)(=O)N2CCC3(CC2)OCCO3)ccc1F	2	i	.	8	2	.	.	-12
O=C(/C=C/c1ccc2ccccc2n1)c1cc(Br)ccc1O	17	i	.	-28	3	-33	1	20
CC(C)Cc1nnc(NC(=O)CCC(=O)Nc2ccccc2F)s1	5	i	.	-3	9	0	6	-5
CCc1ccccc1NC(=S)NCCSc1ccc(Cl)cc1	2	i	-37	-3	0	2	-1	20
NC(=O)CC(NC(=O)Cc1cccc2ccccc12)c1ccc(N2CCN(c3ccccc3)CC2)c([N+](=O)[O-])c1 (stereo not given)	5	i	-8	-21	7	6	0	23
C=C(C)COc1ccc(-c2[nH]ncc2-c2ccccc2)c(O)c1	0	i	-3	.	-5	4	-13	-13
CCCC(=O)OCC(=O)NC1CCCc2ccccc21 (stereo not given)	-1	i	.	-4	-2	1	4	-11
Nc1ccc(CCNc2ncnc3c2ncn3[C@@H]2O[C@H](CO)[C@@H](O)[C@H]2O)cc1	.	i	-16	-51	.	-4	2	9
CCO[C@@H]1OC(C(=O)NC2CC2)=C[C@H](c2c[nH]c3ccccc23)[C@H]1CCCO	-6	i	-5	-7	-6	-3	-2	14
Cc1cc(C(=O)N2CCC(CO)(Cc3cccc(C(F)(F)F)c3)CC2)n[nH]1	-11	i	-1	7	-16	1	-6	-2
CCCn1c(=S)[nH]c2cc(C(=O)N3CCc4ccccc43)ccc2c1=O	15	i	-8	29	-11	-4	-20	-9
N#CN=C(N)c1ccccc1	0&7	i	-9	-38	-2&-2	-7	-5	-22
Cc1cc(C)c(C#N)c(SCC(=O)N2CCN(Cc3ccccc3)CC2)n1	4	i	-23	.	-4	1	2	-11

Continued:
SMILES	PABP polyA inh	Rce1 inhib	UUG fidelity	HIV Env fusion	eIF4H inh	MT1-MMP act inh	MT1-MMP act inh RFP	CSC inhib	others
CC1CCN(C(=O)CSc2nnc(-c3ccco3)o2)CC1	2	i	-8	3	1	-1	3	12
CCC(C)C(NC(=O)c1ccccc1NC(=O)c1ccccc1)C(=O)N1CCOCC1 (stereo not given)	-3	i	-6	.	0	-3	-1	-6
O=C(NC1CC1)C1CCN(C2CCN(C(=O)c3ccc(C(F)(F)F)cc3)CC2)CC1	-1	i	2	3	-7	-2	2	7
Cc1ccc(CS(=O)Cc2ccc(C(=O)NCCCc3ccccc3)o2)cc1 (stereo not given)	.	.	5	-10	.	-2	-1	.
COc1ccc(/C=N/Nc2nc(N)cc(Cl)n2)cc1OC	-8	i	.	-29	-8	-1	-1	-9
CCC1CCCCN1CCCNC(=O)c1cc2c(Cl)nc3ccccc3c2s1 (stereo not given)	4	i	.	-24	-5	3	-1	25
Cc1ccc(Cc2c(-c3ccc(C#N)cc3)nc3ccc(Br)cn23)cc1	.	.	5	-113	.	-7	-3	.
N#CCOc1ccccc1/C=N/n1nnnc1N	-7	i	-2	-24	6	3	0	0
CCOc1ccc(N2C(=O)CCC2=O)cc1	5	i	-12	-145	-2	3	4	-10
Cc1ccc(S(=O)(=O)N2CCN(c3ncnc4scc(-c5ccc(F)cc5)c34)CC2)cc1	.	i	.	-17	.	-8	-2	-5
CCOC(=O)c1c(C)[nH]c(C)c1C(=O)COc1ccc(NC(=O)c2ccco2)cc1	2	i	6	-12	4	7	5	-8
CCSc1nnc(C)c(=O)n1COC(=O)c1ccc(S(=O)(=O)N2CCCC2)cc1	1	i	.	2	4	1	9	8
O=C(Nc1sc2c(c1C(=O)O)CCC2)c1ccc(F)cc1	-7	i	-14	4	-5	3	1	-4
O=C(COC(=O)c1c(F)cccc1Cl)NC1CCCCC1	.	.	-27	-36	.	-3	3	.

Copied from the listing for reference:
SMILES	PABP polyA inh	Rce1 inhib	UUG fidelity	HIV Env fusion	eIF4H inh	MT1-MMP act inh	MT1-MMP act inh RFP	CSC inhib	others
Nc1ccc(CCNc2ncnc3c2ncn3[C@@H]2O[C@H](CO)[C@@H](O)[C@H]2O)cc1	.	i	-16	-51	.	-4	2	9
CCO[C@@H]1OC(C(=O)NC2CC2)=C[C@H](c2c[nH]c3ccccc23)[C@H]1CCCO	-6	i	-5	-7	-6	-3	-2	14
Cc1cc(C(=O)N2CCC(CO)(Cc3cccc(C(F)(F)F)c3)CC2)n[nH]1	-11	i	-1	7	-16	1	-6	-2
CCCn1c(=S)[nH]c2cc(C(=O)N3CCc4ccccc43)ccc2c1=O	15	i	-8	29	-11	-4	-20	-9
N#CN=C(N)c1ccccc1	0&7	i	-9	-38	-2&-2	-7	-5	-22
Cc1cc(C)c(C#N)c(SCC(=O)N2CCN(Cc3ccccc3)CC2)n1	4	i	-23	.	-4	1	2	-11
CC1CCN(C(=O)CSc2nnc(-c3ccco3)o2)CC1	2	i	-8	3	1	-1	3	12
CCC(C)C(NC(=O)c1ccccc1NC(=O)c1ccccc1)C(=O)N1CCOCC1 (stereo not given)	-3	i	-6	.	0	-3	-1	-6
O=C(NC1CC1)C1CCN(C2CCN(C(=O)c3ccc(C(F)(F)F)cc3)CC2)CC1	-1	i	2	3	-7	-2	2	7
Cc1ccc(CS(=O)Cc2ccc(C(=O)NCCCc3ccccc3)o2)cc1 (stereo not given)	.	.	5	-10	.	-2	-1	.
COc1ccc(/C=N/Nc2nc(N)cc(Cl)n2)cc1OC	-8	i	.	-29	-8	-1	-1	-9
CCC1CCCCN1CCCNC(=O)c1cc2c(Cl)nc3ccccc3c2s1 (stereo not given)	4	i	.	-24	-5	3	-1	25
Cc1ccc(Cc2c(-c3ccc(C#N)cc3)nc3ccc(Br)cn23)cc1	.	.	5	-113	.	-7	-3	.
N#CCOc1ccccc1/C=N/n1nnnc1N	-7	i	-2	-24	6	3	0	0
CCOc1ccc(N2C(=O)CCC2=O)cc1	5	i	-12	-145	-2	3	4	-10
Cc1ccc(S(=O)(=O)N2CCN(c3ncnc4scc(-c5ccc(F)cc5)c34)CC2)cc1	.	i	.	-17	.	-8	-2	-5
CCOC(=O)c1c(C)[nH]c(C)c1C(=O)COc1ccc(NC(=O)c2ccco2)cc1	2	i	6	-12	4	7	5	-8
